RanGTP-Imp inh: disruptors of Ran-importin-beta complex formation – biochemical, FRET, CFP-Ran, YFP-importin-beta, homogeneous, primary screen | cell-free CFP-Ran/YFP-importin-beta FRET ratio | inhibition, % (concentration not given with the values) | 1.1% of 300,000 active | AID 2216;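 active = most replicates above 15%; inconclusive = exactly half above 15%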;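 also: 0% = DMSO wells and 100% = Ran loaded with GDP instead of GTP; wells of about 40 µL received 100 nL stock; the first replicate is given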
Ecoli rRNA inh: inhibitors of bacterial rRNA selective over humanized ribosomes; E. coli WT GFP vs humanized-ribosome RFP mutants, fluorescence, 24 h; stronger effect = lower value; DMSO median 0, no signal -100; GFP signal change (wild-type ribosome), % (no concentration beside the values); 1.6% of 350,000 active; AID 720706;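 active = significant combined selectivity score with lowered wild-type GFP, culture density cut under 30%, mutant RFP and density less affected; inactive = any of these conditions unmet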; also: one replicate is shown; some compounds called inactive have numbers as strong as hits
Beta apoptosis: blocks beta cell apoptosis; AID 435005; 0.8% of 300,000 active; INS-1E cytokine-induced death, ATP luminescence, 48 h; percent of positive-control rescue, neutral wells zero; protection from apoptosis, % (no concentration beside the values);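 active = all replicates at 75% or more, or half of them and the mean; inconclusive = half reach 75% but not the mean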;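 also: 0% = cytokine-treated negative control wells and 100% = positive control rescue; higher means more ATP so stronger rescue from cytokine killing; wells of about 40 µL received 100 nL stock; the first replicate is given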
MLL AF4-AF9 inh: inhibitors of human MLL-AF4/AF9 interaction. P42568. AlphaScreen, biotin-AF4 peptide binding to FLAG-AF9. inhibition, % at 10 µM. 0.47% of 350,000 active. AID 651704;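 active = every replicate reaching a set inhibition limit, whatever the replicate mean, cut at about 25% in these data; inconclusive = mean inhibition reaches that limit but some replicates miss it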;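 also: 0% = plate neutral control median and 100% = total signal loss; the record names both 10 and 1 µM as test concentration; the first replicate is given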
Target sequence (P42568 whole entry, looked up): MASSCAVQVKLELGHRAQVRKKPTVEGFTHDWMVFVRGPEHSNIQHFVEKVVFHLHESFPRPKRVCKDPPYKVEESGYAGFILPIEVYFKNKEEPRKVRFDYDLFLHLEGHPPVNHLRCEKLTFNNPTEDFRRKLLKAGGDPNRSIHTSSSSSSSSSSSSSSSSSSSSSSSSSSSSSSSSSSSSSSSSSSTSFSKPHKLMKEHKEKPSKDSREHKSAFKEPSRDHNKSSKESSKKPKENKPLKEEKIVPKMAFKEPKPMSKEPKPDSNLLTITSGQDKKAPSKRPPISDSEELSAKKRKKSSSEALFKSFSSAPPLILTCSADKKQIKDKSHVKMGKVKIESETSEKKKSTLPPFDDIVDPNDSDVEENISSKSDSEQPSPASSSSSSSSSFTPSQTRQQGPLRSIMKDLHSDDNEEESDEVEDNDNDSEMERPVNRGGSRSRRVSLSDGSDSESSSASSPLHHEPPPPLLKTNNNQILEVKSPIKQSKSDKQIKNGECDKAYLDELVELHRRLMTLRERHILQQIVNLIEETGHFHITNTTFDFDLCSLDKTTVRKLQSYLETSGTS
ALR H2O2 inh: human ALR oxidase inhibition via reduced H2O2 | P55789 | purified ALR, DTT oxidation, H2O2 HRP-luminol luminescence | inhibition, % (no concentration beside the values) | 3.8% of 290,000 active | AID 485317;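 active = mean and each replicate at 75% or more; inconclusive = only one of the two met; inactive = neither met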;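 also: stock transfer was 7.5 nL into about 7.5 µL; 0% = neutral wells and 100% = wells with inactivated enzyme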
Target sequence (P55789 whole entry, looked up): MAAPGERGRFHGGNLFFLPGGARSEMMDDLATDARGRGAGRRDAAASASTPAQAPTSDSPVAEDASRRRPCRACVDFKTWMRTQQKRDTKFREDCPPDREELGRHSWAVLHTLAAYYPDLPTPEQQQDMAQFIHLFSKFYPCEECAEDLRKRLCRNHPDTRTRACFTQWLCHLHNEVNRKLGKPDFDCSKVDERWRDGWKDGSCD
T cruzi repl: blocks replication of Trypanosoma cruzi | inhibition, % (test concentration not listed) | 1.4% of 300,000 active | T. cruzi beta-gal in NIH3T3, luminescence, 90 h | AID 1885;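 active = mean inhibition across valid replicates above about 55%, limit read from the data; inconclusive = mean below that limit but half or more replicates reach it; inactive = mean below it, under half of replicates reach it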;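 also: signal also drops with host cell toxicity which is not excluded here; 0% = plate median of DMSO wells and 100% = zero luminescence signal; higher percent means less beta-gal luminescence so fewer parasites; stock transfer was 50 nL into about 50 µL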
Calb FLC: affects C. albicans growth with fluconazole | C. albicans CaCi-2 (fluconazole-resistant clinical isolate) + fluconazole, Alamar Blue growth, 48 h | growth inhibition, % (no concentration beside the values) | 0.57% of 300,000 active;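 active = most replicates above 75%; inconclusive = exactly half above 75%; inactive = most below 75%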;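 also: all wells also contain fluconazole at 8 µg/ml as a sub-toxic cotreatment; 0% = median of DMSO wells and 100% = median of geldanamycin control wells; wells of about 8 µL received 7.5 nL stock; the first replicate is given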
FGF22 binding: binders of recombinant human FGF22 by thermal shift; SYPRO orange fluorescence; percent of sucrose octasulfate shift, DMSO zero; Q9HCT0; 1.5% of 340,000 active; AID 651658; calls only at 9.99 µM;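 active = melting point raised past a set limit in the mean and every replicate; inconclusive = no clear call; three in four hits are not shown here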
Target sequence (Q9HCT0 whole entry, looked up): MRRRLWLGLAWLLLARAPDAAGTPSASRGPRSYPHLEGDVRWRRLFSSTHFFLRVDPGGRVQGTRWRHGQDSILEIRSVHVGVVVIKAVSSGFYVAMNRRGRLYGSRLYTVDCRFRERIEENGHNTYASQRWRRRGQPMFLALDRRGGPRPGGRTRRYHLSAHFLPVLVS
Ecoli rRNA inh OD600: second read-out of Ecoli rRNA inh, no call of its own (marks repeat the call); OD600 change, %; measured here: OD600 growth;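 optical density of the mix in the first replicate; 0 = DMSO median and -100 = no signal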
Ecoli rRNA inh RFP: further read-out of Ecoli rRNA inh, marked with its call; RFP signal change, %; measured here: RFP humanized mutant strains;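 first replicate; 0 = DMSO median and -100 = no signal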
The depositor's hits bear a star; i = inactive; ? = inconclusive; . = no result given; + = active, no number.

SMILES | RanGTP-Imp inh | Ecoli rRNA inh | Ecoli rRNA inh OD600 | Ecoli rRNA inh RFP | Beta apoptosis | MLL AF4-AF9 inh | ALR H2O2 inh | T cruzi repl | Calb FLC | FGF22 binding
O=C(Nc1ccc(S(=O)(=O)Nc2ccccn2)cc1)c1cccc(Cl)c1 | -4.6 | 5 | 5 | 1.6 | -3 | 0.7 | 10 | -4 | 4 | i
COC(=O)Cn1c(CN(Cc2ccccc2)Cc2ccccc2)nc2c1c(=O)[nH]c(=O)n2C | 5.8 | -1 | -7 | -1.0 | 0 | 0.7 | -4 | 1 | 6 | i
COc1cc(CC(=O)OCC(=O)c2ccc[nH]2)cc(OC)c1OC | . | 3 | 6 | 1.7 | -2 | -2.6 | -6 | . | . | i
Cc1cc(C)c([C@@H]2C[C@H]3CN(C4CCCC4)C(=O)[C@]34CCCN24)c(-n2cccn2)c1 | -3.8 | 6 | 0 | 1.9 | 4 | -1.5 | -12 | 17 | 2 | i
O=C(COC(=O)C1COc2ccccc2O1)Nc1cccc(F)c1 (stereo not drawn) | . | 13 | 7 | 0.3 | 1 | -4.7 | 2 | . | . | i
Cn1c(C(=O)N2CCN(C(=O)c3ccco3)CC2)cc2c(=O)n(C)c3ccccc3c21 | 1.3 | -14 | -17 | -0.4 | -3 | -4.3 | 1 | 2 | 15 | i
FC(F)(F)c1nnc2sc(-c3cccs3)nn12 | -2.5 | . | . | . | -1 | . | -12 | -1 | 26 | .
CCn1nc(NC(=O)c2ccncc2)c2cc3cc(C)ccc3nc21 | 12 | . | . | . | 1 | . | -29 | 17 | -7 | .
O=C(COc1ccc(F)cc1F)NNC(=O)Nc1cccc([N+](=O)[O-])c1 | 1.3 | 1 | 2 | -2.1 | -9 | -4.7 | 6 | -17 | 3 | i
O=C(CCCCn1c(=O)c2ccccc2n(CC(=O)Nc2ccccc2)c1=O)NCc1ccco1 | 5.1 | . | . | . | 1 | . | -6 | 5 | 7 | .
Cc1ccc(-c2nc(CN(C)C3CCOC3)c(C)o2)s1 (stereo not drawn) | 0.3 | -1 | 8 | 0.0 | -4 | -2.7 | -13 | -5 | -5 | i
CSc1ncccc1C(=O)OCC(=O)NC1CCCC1 | . | 0 | 0 | 1.1 | -1 | 0.0 | 0 | . | . | i
O=C(c1ccncc1)c1ccc(N2CCN(C3CC(=O)N(Cc4ccccc4)C3=O)CC2)cc1 (stereo not drawn) | 3.2 | . | . | . | 8 | . | 3 | 20 | 2 | .
Cc1nc2cc(NS(=O)(=O)c3ccccc3F)ccc2s1 | 1.3 | -5 | -6 | -3.2 | 0 | -9.2 | . | -6 | 44 | i
O=C(CN1C(=O)NC2(CCCCCCC2)C1=O)NC(=O)NCc1ccco1 | 4.7 | . | . | . | -4 | . | . | -6 | ? | .

Reformatted comma-delimited: entries from further up
Molecule,RanGTP-Imp inh,Ecoli rRNA inh,Ecoli rRNA inh OD600,Ecoli rRNA inh RFP,Beta apoptosis,MLL AF4-AF9 inh,ALR H2O2 inh,T cruzi repl,Calb FLC,FGF22 binding
O=C(COC(=O)C1COc2ccccc2O1)Nc1cccc(F)c1 (stereo not drawn),.,13,7,0.3,1,-4.7,2,.,.,i
Cn1c(C(=O)N2CCN(C(=O)c3ccco3)CC2)cc2c(=O)n(C)c3ccccc3c21,1.3,-14,-17,-0.4,-3,-4.3,1,2,15,i
FC(F)(F)c1nnc2sc(-c3cccs3)nn12,-2.5,.,.,.,-1,.,-12,-1,26,.
CCn1nc(NC(=O)c2ccncc2)c2cc3cc(C)ccc3nc21,12,.,.,.,1,.,-29,17,-7,.

Additional records.
SMILES | RanGTP-Imp inh | Ecoli rRNA inh | Ecoli rRNA inh OD600 | Ecoli rRNA inh RFP | Beta apoptosis | MLL AF4-AF9 inh | ALR H2O2 inh | T cruzi repl | Calb FLC | FGF22 binding
CN(Cc1cccc(Cl)c1)C(=O)C1CCC(=O)N(C2CC2)C1 (stereo not drawn) | 4.1 | 2 | 9 | -0.6 | 0 | -3.0 | -10 | -1 | -6 | i
Cc1cc(S(=O)(=O)N2CCOCC2)ccc1OCC(=O)N1CCCCC1 | ? | 5 | 13 | 0.2 | -8 | -2.0 | 6 | -3 | 6 | i
O=C(NC(=S)Nc1ccc(N2CCOCC2)cc1)c1cccs1 | 2.7 | -4 | 7 | -2.5 | -6 | 1.5 | 71 | 1 | 8 | i
CCCN(Cc1nc2cc(Cl)ccc2c(=O)[nH]1)C(=O)c1ccc(S(=O)(=O)N2CCCC2)cc1 | . | 2 | 0 | -3.6 | 2 | -11 | . | . | . | i
Cn1c(=O)c2ccccc2n(Cc2cccc(F)c2)c1=O | -4.7 | 9 | 6 | 1.5 | 4 | 0.3 | -4 | 5 | 16 | i
O=C(CCNC(=O)c1ccc([N+](=O)[O-])cc1)NCc1cccs1 | . | -4 | 6 | -4.7 | 3 | -0.6 | -38 | . | . | i
CCOC(=O)Cc1csc(NC(=O)Nc2cccc(OC)c2)n1 | 8.9 | -29* | -1.6* | -2.3* | -2 | 0.0 | 9 | 19 | -11 | i
O=c1[nH]c2cc3c(cc2cc1C(c1nnnn1CC1CCCO1)N1CCCC1)OCO3 (stereo not drawn) | -1.2 | . | . | . | -6 | . | -8 | . | 18 | .
CCSc1nc2ccc(N3C(=O)C4C5C=CC(C5)C4C3=O)cc2s1 (stereo not drawn) | 3.6 | -5 | -12 | -2.0 | -4 | 5.7 | -4 | 26 | -7 | i
c1cc2c(cc1OCCNC1CCCC1)CCC2 | -4.2 | . | . | . | -10 | . | 1 | -21 | -2 | .
NC(=O)Nc1ccc(Oc2c(F)c(F)c(F)c(F)c2F)cc1 | 3.5 | . | . | . | -1 | . | -16 | 1 | -3 | .
COc1ccccc1C(=O)NC(CCSC)C(=O)NNC(=O)c1ccc(F)cc1 (stereo not drawn) | 0.1 | . | . | . | -7 | -0.9 | 1 | 1 | 3 | i
CCn1cc(CN2CCC(C(=O)Nc3cccc(-c4cccc(OC)c4)c3)CC2)c(C)n1 | 2.1 | 16 | 14 | 4.7 | -8 | 0.7 | 1 | -3 | -11 | i
CN1C(=O)CC(NNC(=O)c2ccccc2)C1=O (stereo not drawn) | -2.4 | . | . | . | 0 | . | . | -6 | 16 | .
Cc1ccccc1CSCCNC(=O)CCSc1ccccc1 | -1.1 | -23 | -54 | 9.0 | 1 | . | 2 | 6 | -12 | .
CCN(CC)Cc1c(O)ccc2occ(C(=O)c3ccc(OC)cc3)c12 | -2.1 | . | . | . | -4 | . | 0 | 23 | 5 | .
N#C/C(=C\c1ccc(N2CCCCC2)o1)C(N)=O | 5.3 | 9 | 6 | 7.1 | 2 | -1.5 | 90* | -3 | -3 | i
COCCCn1c(=O)c2sccc2n2c(CCCC(=O)NCc3ccccc3)nnc12 | -2.3 | 3 | -8 | -1.7 | 1 | 1.2 | -5 | -29 | ? | i
COc1ccc(CN2CC(C(=O)NCC3CCCO3)CC2=O)cc1 (stereo not drawn) | 0.0 | . | . | . | -7 | . | -5 | -10 | 5 | .
O=C(c1n[nH]c2ccccc12)N1CCN(S(=O)(=O)c2ccc3ccccc3c2)CC1 | -0.7 | . | . | . | -5 | . | -23 | 2 | 26 | .
CCCc1cc(=O)oc2cc(C)cc(OCC(=O)N[C@@H](CSCc3ccccc3)C(=O)O)c12 | 1.7 | . | . | . | . | 5.1 | -8 | -6 | 6 | +
CC(C)Oc1ccc(N2CC(C(=O)Nc3ccc(N4CCOCC4)cc3)CC2=O)cc1 (stereo not drawn) | 6.0 | . | . | . | 4 | . | -4 | -5 | 5 | .
CC(=O)Nc1c([N+](=O)[O-])cc(C)c(Cl)c1[N+](=O)[O-] | 0.9 | -11 | 0 | -0.6 | -7 | -0.2 | -8 | -9 | -26 | i
COCCCn1c(C(C)C)nc2oc3cc(OC)ccc3c(=O)c2c1=O | -0.8 | . | . | . | 1 | . | 5 | 11 | 14 | .
c1ccc(-c2nnc(-c3c[nH]c4ccccc34)nc2-c2ccccc2)cc1 | -1.0 | . | . | . | 9 | . | 0 | 31 | 6 | .
COc1ccc(CCNC(=O)CCc2ccc(S(=O)(=O)NCC(C)C)cc2)cc1 | 0.1 | -14 | -11 | 4.0 | -3 | 2.4 | . | -2 | -1 | i
COC(=O)C1(Cc2cc(-c3ccc(OC)cc3OC)no2)CCN(C(=O)OC(C)(C)C)CC1 | ? | -14 | -27 | -7.0 | . | -0.3 | -1 | 17 | -10 | i
Cc1ccc(/C=N/NC(=O)c2cccc(NC(=O)c3ccccc3Cl)c2)o1 | ? | . | . | . | -1 | 0.0 | 0 | 11 | -1 | i
O=C(NC(=S)NNC(=O)[C@H]1C[C@@H]1c1ccccc1)c1ccc(F)cc1 | -2.3 | -42 | -37 | -10 | . | . | 26 | 4 | -2 | i
Cc1ccc(NC(=O)C2(C)Cc3ccccc3C(=O)O2)cc1 (stereo not drawn) | 1.1 | 13 | 0 | 6.4 | -3 | -2.9 | -1 | 2 | -15 | i
Nc1ccc(-c2nc3ccccc3o2)cc1 | -3.2 | 13 | 13 | 0.8 | 3 | -7.1 | . | -8 | -4 | i
Cc1cccc(C)c1NC(=O)CNC(=O)c1ccncc1 | 4.2 | 15 | 14 | 1.1 | -6 | -9.9 | -1 | -9 | 36 | i
Cc1ccc(C)c(Cn2c3ccccc3c3cnn(CC(=O)NCc4ccccn4)c(=O)c32)c1 | 3.2 | 14 | 6 | 5.4 | 1 | -2.0 | 11 | 14 | 6 | i
CCc1cc(=O)oc2cc(C)cc(OC(C)C(=O)NCc3ccncc3)c12 (stereo not drawn) | 4.9 | 4 | 5 | 0.9 | . | -2.0 | -1 | -6 | -5 | i
CCCN1CCC(NC(=O)Nc2ccccc2C(=O)OC)CC1 | 3.2 | . | . | . | 1 | . | -4 | 6 | 8 | .
COc1cc(C(=O)C(=O)c2ccc(O)c(OC)c2)ccc1O | 5.3 | 0 | -1 | 1.9 | 1 | 1.5 | 100* | 8 | 4 | i
Cc1cc(C)c(C(=O)OCc2csc(CC(=O)Nc3ccccc3C)n2)c(C)c1 | 2.5 | -29 | -36 | -1.3 | 40 | -1.8 | -4 | 13 | 0 | i
COC(=O)Cc1[nH]nc2c1C(c1ccc(O)c(OC)c1)C(C#N)=C(N)O2 (stereo not drawn) | 5.4 | 1 | 2 | -9.7 | 1 | 30* | 99* | 1 | 15 | .
COc1ccc(S(=O)(=O)N2CCc3cc(OC)c(OC)cc3C2)cc1 | 1.8 | -3 | 2 | 6.1 | -2 | ? | -7 | -3 | -6 | i
Cc1sc(-n2c(C)cc(/C=N/n3cnnc3)c2C)c(C#N)c1C | -4.2 | . | . | . | -1 | 5.8 | 36 | 36 | 17 | i
COC(=O)c1ccc(Oc2nc(NC(C)C)nc(NC(C)C)n2)cc1 | 6.8 | 8 | 7 | -2.9 | 1 | 5.6 | -12 | 7 | 0 | i

This is a subset (hit frequency here may not be typical).
